2A firefly = lowers the firefly signal of an FMDV 2A StopGo reporter | HEK cells with a luciferase reporter of 2A StopGo recoding | Potency, µM (titrated, usually from 57.5 µM), inactives show at the highest dose signal change, negative = less light | 120,000 compounds, 0.23% hits | AID 1745856; active = well fitted falling curve with a large enough effect; inconclusive = small, poorly fitted or top-dose-only effect; inactive = no such curve, though single readings can be large or run the other way; note: nearly all actives have a fitted effect of over 60% in size; overnight with compound
StopGo RLuc = FMDV 2A StopGo reporter, Renilla signal; HEK cells with a luciferase reporter of 2A StopGo recoding; Potency, µM (series often up to 57.5 µM), for the others: top-dose signal change, negative = less light; 120,000 compounds, 0.32% hits; AID 1745857; active means well fitted falling curve with a large enough effect; inconclusive means small, poorly fitted or top-dose-only effect; inactive means no such curve, though single readings can be large or run the other way; note: nearly all actives have a fitted effect of over 55% in size; overnight with compound
The depositor's hits bear a star; & = joins results of further samples; [ ] = dose if it differs, or a comment. % is set by controls: 0 for no effect and ±100 for the full control effect; potency is the fitted concentration of half-maximal effect.

Screening COc1ccc(Cl)cc1Nc1nc(N)nc(CN2CCN(Cc3ccc4c(c3)OCO4)CC2)n1 returned 2A firefly 8% and StopGo RLuc 0%.
Screening Cc1cccc(Cn2c(=O)n(CCC(=O)NCCc3ccc(Cl)cc3)c(=O)c3sccc32)c1 returned 2A firefly 2%&21% and StopGo RLuc 4%&-10%.
`COC(=O)c1ccc(CNC(=O)c2nc(Cn3nc(C)c(Br)c3C)no2)cc1` gave 2A firefly -20% and StopGo RLuc -10%.
[C-]#[N+][C@]12C(=O)[C@H](C=C(Cl)[C@@]1(C)C=C)C(C)(C)[C@H]1C(=O)N(C)c3cccc2c31 was read as 2A firefly inconclusive and StopGo RLuc inconclusive.
For Fc1ccccc1CSc1nnc([C@@H]2CCCN2)o1 the results were 2A firefly 57%[activator] and StopGo RLuc -4%.
COc1cc(C2C(=O)N(C3CCCCC3)CC(=O)N2Cc2ccc(C)cc2)ccc1OC(C)C (centres undefined) was read as 2A firefly 2% and StopGo RLuc -3%.
CCOc1ccc(NC(=O)CSc2nc(-c3ccccc3)c3cc(OCC)ccc3n2)cc1 was read as 2A firefly -13% and StopGo RLuc -10%.
Screening O=C(COc1ccc2ccccc2c1)Nc1nc2n(n1)C(c1ccccc1)CC(=O)N2 (centres undefined) returned 2A firefly -11% and StopGo RLuc -16%.
`N#Cc1ccccc1OCc1ccc(-c2ccccc2C#N)cc1` gave 2A firefly 179%[activator] and StopGo RLuc -7%[1.06 µM].
`CCOC(=O)c1cc2c(=O)n3ccccc3nc2n(CC(C)C)c1=NC(=O)c1c(-c2c(F)cccc2Cl)noc1C` gave 2A firefly 31%[activator] and StopGo RLuc 32%[activator].
Screening Cn1ccnc1C(O)(CC(=O)Nc1ccccc1)C(F)(F)F (centres undefined) returned 2A firefly 32%[activator] and StopGo RLuc 1%.
`Cc1oc(-c2nc(C#N)c(NCc3ccccc3)o2)cc1S(=O)(=O)N1CCCCC1` gave 2A firefly -7% and StopGo RLuc 31%.
COc1ccc(CNC(=O)CSc2nc(C3CC3)nc3ccccc23)cc1 was read as 2A firefly -11% and StopGo RLuc -9%.
For O=C(Nc1ccccc1-c1nc(Cc2ccccc2)no1)c1cccnc1 the results were 2A firefly 4% and StopGo RLuc -2%.
For COc1ccc(C(CCOC(=O)Oc2ccccc2)c2cc(OC)c(OC)c(OC)c2)cc1 (centres undefined) the results were 2A firefly 26% and StopGo RLuc 23%.
For CCCCCCCNC(=O)c1ccc(Nc2ccc(-c3cccc(C)c3)nn2)cc1 the results were 2A firefly 26% and StopGo RLuc 14%.
Screening CCc1ccc(NC(=O)C(Cc2ccccc2)NS(=O)(=O)c2ccc3c(c2)CCN3C(C)=O)cc1 (centres undefined) returned 2A firefly -5% and StopGo RLuc 35%[activator].
`CCONC(=O)CSCc1ccc(C)cc1` gave 2A firefly 3% and StopGo RLuc 2%.
For CC(C1CC1)N(Cc1ccccc1)S(=O)(=O)c1ccc(Br)cc1 (centres undefined) the results were 2A firefly 18% and StopGo RLuc 75%[activator].
For CC(=O)COc1ccc2c(C)c(CC(C)C)c(=O)oc2c1 the results were 2A firefly 252%[activator] and StopGo RLuc 10%.
Screening CN(C(=O)c1nc(-c2cccc(F)c2)n2c1CCCCC2)c1ccccc1F returned 2A firefly -17% and StopGo RLuc -5%.
Screening Cc1ccc(Nc2ncc(C(=O)Nc3ccc(F)cc3F)c3ccccc23)cc1Cl returned 2A firefly -18% and StopGo RLuc -6%.
Screening CCCOc1c(Cl)cc(C(=O)Nc2nnc(CC)s2)cc1OC returned 2A firefly 47%[activator] and StopGo RLuc 20%.
For COc1ccccc1Cn1c(CNS(=O)(=O)c2c(C)cc(C)cc2C)nc2cccnc21 the results were 2A firefly 19% and StopGo RLuc 215%[activator].
`N#Cc1ccc(CN2CCN(c3oc(C4CC4)nc3C#N)CC2)cc1` gave 2A firefly -17% and StopGo RLuc -21%.
Screening COc1ccc2c(c1)CC(C(=O)Nc1c(C)cc(C)cc1C)CO2 (centres undefined) returned 2A firefly -8% and StopGo RLuc -5%.
Screening CCc1c(C)sc(NC(=O)Cc2ccccc2C)c1C#N returned 2A firefly 24% and StopGo RLuc 38%[activator].
Screening CN(C)CCc1c[nH]c2ccc(CS(=O)(=O)N3CCCC3)cc12 returned 2A firefly -14% and StopGo RLuc -15%.
CCN1CCN(C(=O)c2ccc3[nH]c(C)c(C)c3c2)CC1 was read as 2A firefly 20% and StopGo RLuc -4%.
Screening O=C(NC1CCCc2ccccc21)c1ccc2ccccc2n1 (centres undefined) returned 2A firefly 0% and StopGo RLuc 96%[activator].
For O=C(c1ccc2c(=O)n(CCc3ccccc3)c(=O)[nH]c2c1)N1CCN(c2ccc(Cl)cc2)CC1 the results were 2A firefly -3% and StopGo RLuc 8%.
Screening Cc1ccc(S(=O)(=O)NCC(CCC(=O)O)C(F)(F)F)cc1 (centres undefined) returned 2A firefly 2% and StopGo RLuc -5%[1.06 µM].
For N#CCCn1cc(C(=O)Nc2ccc(Cl)cc2)c(-c2cccs2)n1 the results were 2A firefly 22% and StopGo RLuc 99%[activator].
For O=c1oc2ccc3ccccc3c2cc1-c1nnc(Nc2ccc(Cl)cc2Cl)s1 the results were 2A firefly -23% and StopGo RLuc -19%.
Screening COc1ccc(CN2CCN(c3ncnc4sc5c(c34)CCCC5)CC2)cc1F returned 2A firefly 19% and StopGo RLuc 5%.
`COc1ccc(C(=O)NCc2ccc3c(c2)CCN3C(C)=O)cc1OC` gave 2A firefly -12% and StopGo RLuc -5%.
Screening CCC(=O)Nc1ccc(-c2nc3ccc(C)cc3o2)cc1 returned 2A firefly 121%[activator] and StopGo RLuc 24%.
For CCCCN(CC)CCCNC(=O)c1cn(CC)c2ccc(S(=O)(=O)N3CCc4ccccc4C3)cc2c1=O the results were 2A firefly -47% and StopGo RLuc -21%.
Screening CC(=O)Nc1ccc(S(=O)(=O)NCCc2csc3nc(-c4ccc(Cl)cc4)nn23)cc1 returned 2A firefly inconclusive and StopGo RLuc 60%[activator].
For Cc1ccc(C(C)C)c(Oc2ccc(C(=O)O)cc2)c1 the results were 2A firefly -2% and StopGo RLuc -11%.
For COc1ccc2c(=O)cc(-c3ccccc3)oc2c1 the results were 2A firefly 182%[activator] and StopGo RLuc 19%.
Screening CCOC(=O)CSc1n[nH]c2nc3c(c(=O)n12)C1(CCCC1)Cc1ccccc1-3 returned 2A firefly 4% and StopGo RLuc 0%.
`Nc1nc(Cl)nc(Nc2ccc(F)cc2)c1[N+](=O)[O-]` gave 2A firefly 9% and StopGo RLuc 5%.
Screening COc1ccc(OC)c(CNC(=O)c2ccc3c(c2)c(C)c(C)n3Cc2ccc(Cl)cc2)c1 returned 2A firefly -3% and StopGo RLuc 12%.
Screening Cc1ncc(-c2ccc(C)c(S(=O)(=O)Nc3ccc(Cl)cc3)c2)o1 returned 2A firefly 13% and StopGo RLuc 217%[activator].
`COc1ccc(N(C)C(=O)c2cc(S(=O)(=O)N3CCc4ccccc43)cn2C)c(OC)c1` gave 2A firefly inconclusive and StopGo RLuc inconclusive.
`Nc1c(Cl)cc(C23CC4CC(CC(C4)C2)C3)cc1Cl` gave 2A firefly 14% and StopGo RLuc 3%.
Screening Cc1ccc(S(=O)(=O)N(Cc2nc3nc(C)cc(C)n3n2)c2cccc(C)c2)cc1 returned 2A firefly 6% and StopGo RLuc 194%[activator].
CC(N)Cc1ccc2oc3ccccc3c2c1 (centres undefined) was read as 2A firefly 7% and StopGo RLuc -1%.
`CCN(Cc1cccs1)C(=O)CCl` gave 2A firefly -8% and StopGo RLuc -13%.
Cc1c(CC(=O)N2CCN(C(=O)C3COc4ccccc4O3)CC2)c(=O)oc2cc(O)ccc12 (centres undefined) was read as 2A firefly -9% and StopGo RLuc -15%.
`N#C/C(=C\c1cn(CC(=O)NCc2ccco2)c2ccccc12)C(=O)NC1CCCCC1` gave 2A firefly 34% and StopGo RLuc 23%.
For COc1cc(CC(C)N)cc(OC)c1OC (centres undefined) the results were 2A firefly 46%[activator][27 µM] and StopGo RLuc -11%[129 µM].
Cc1ccc2oc(-c3ccc(NC(=O)c4cc([N+](=O)[O-])ccc4N4CCOCC4)cc3)nc2c1 was read as 2A firefly 194%[activator] and StopGo RLuc 0%.
`O=C(NC1(c2ccccc2)CCC1)c1ccc(F)cc1Br` gave 2A firefly 5% and StopGo RLuc 2%.
For Cc1oc(-c2ccccc2)nc1C(=O)OCC(=O)NC(=O)NC1CCCCC1 the results were 2A firefly 0% and StopGo RLuc -1%.
`O=C(OCc1ccccc1Br)c1cc2ccccc2[nH]1` gave 2A firefly 191%[activator] and StopGo RLuc 111%[activator].
O=C(c1cc2c(=O)oc3ccccc3c2s1)N1CCN(c2ccccc2)CC1 was read as 2A firefly -21% and StopGo RLuc -8%.
O=C(COc1ccc(F)cc1)N1CCN(CCc2ccncc2)CC1 was read as 2A firefly 8% and StopGo RLuc -1%.
For C=CCN(CC=C)C(=O)CSc1nnc(-c2c[nH]c3ccccc23)o1 the results were 2A firefly 94%[activator] and StopGo RLuc 24%.

Entries listed so far with a COOH group, in the order listed:
Screening Cc1ccc(S(=O)(=O)NCC(CCC(=O)O)C(F)(F)F)cc1 (centres undefined) returned 2A firefly 2% and StopGo RLuc -5%[1.06 µM].
For Cc1ccc(C(C)C)c(Oc2ccc(C(=O)O)cc2)c1 the results were 2A firefly -2% and StopGo RLuc -11%.

(continued)
Screening CCCCN(C)CCNC(=O)c1cc(-c2ccc(Cl)s2)nc2ccccc12 returned 2A firefly -21% and StopGo RLuc inconclusive.
Screening Cc1cccc2cc(-c3nc(-c4cccs4)no3)c(=O)oc12 returned 2A firefly 16%&6% and StopGo RLuc -6%&-6%.
For CCOc1ccccc1CNC(=O)C1CCN(C(=O)N2CCOc3ccc(Cl)cc32)CC1 the results were 2A firefly 11% and StopGo RLuc 14%.
Cc1cccc(CN2C(=O)CN=C(c3ccccc3)c3cc(Cl)ccc32)c1 was read as 2A firefly -16% and StopGo RLuc 10%.
Screening Cc1ccc(NC(=O)CSc2nc3nccnc3c(=O)n2CCc2c[nH]c3ccccc23)c(C)c1 returned 2A firefly -9% and StopGo RLuc 1%.
Screening CCOc1ccc(NC(=O)Cn2cc(C(=O)c3ccccc3)c(=O)c3cc(OC)ccc32)cc1 returned 2A firefly -11% and StopGo RLuc -4%.
Screening CCc1ccc(OC(=O)C(c2ccccc2)c2ccccc2)cc1 returned 2A firefly 0% and StopGo RLuc 18%.
`O=C(Cn1cc(S(=O)(=O)N2CCN(c3ccccc3F)CC2)c2ccccc2c1=O)Nc1ccc(F)cc1Cl` gave 2A firefly -18% and StopGo RLuc 20%.
`COc1ccc(-c2coc3cc(OCC(=O)N4CCC(C(N)=O)CC4)ccc3c2=O)cc1` gave 2A firefly 83%[activator] and StopGo RLuc 12%.
For C=CCNC(=S)NNC(=O)C1CCCC1 the results were 2A firefly -14% and StopGo RLuc 36%[activator].
Cc1ccc(-c2c(NC(=O)c3ccc([N+](=O)[O-])cc3)oc3ccccc3c2=O)cc1 was read as 2A firefly 58% and StopGo RLuc 15%.
For CCO[C@@H]1O[C@H](C(COCc2ccccc2)OCc2ccccc2)[C@H](OCc2ccccc2)[C@H]1O (some centres undefined) the results were 2A firefly -3%[11.5 µM] and StopGo RLuc 11%.
Screening NCc1ccc2c3c1CCCN3CCC2 returned 2A firefly -4% and StopGo RLuc -4%.
For CN(CC(F)(F)F)C(=O)CCNC(=O)c1ccc(Br)cc1 the results were 2A firefly 44%[activator] and StopGo RLuc 11%.
For Cc1ccc(/C=C/C(=O)O)cc1Cl the results were 2A firefly 15% and StopGo RLuc 1%.
`Cc1oc2ncn(CC(C)C)c(=O)c2c1C(=O)N1CCN(c2ccccc2F)CC1` gave 2A firefly -6% and StopGo RLuc 21%.
Screening COc1ccc(CNc2nc(-c3ccccc3)nn2C(=O)c2ccccc2OC)cc1 returned 2A firefly 105%[activator] and StopGo RLuc 4%.
Screening CC(C)(C)c1ccc(C(=O)NCCCNC(=O)c2ccc(C(C)(C)C)cc2)cc1 returned 2A firefly 9% and StopGo RLuc -6%.
COc1cc(OC)cc(-c2nc3nc(C)c(CCC(=O)Nc4cc(C)cc(C)c4)c(C)n3n2)c1 was read as 2A firefly -5% and StopGo RLuc -4%.
CC(OC(=O)c1ccc(OCC(N)=O)cc1)C(=O)c1ccc2c(c1)CCC2 (centres undefined) was read as 2A firefly 11% and StopGo RLuc -1%.
Screening Cc1ccc(NC(=O)CCNS(=O)(=O)c2cccc3nonc23)cc1Cl returned 2A firefly -16% and StopGo RLuc -7%.
CS(=O)(=O)c1ccc2nc(NC(=O)CSCc3ccccc3)sc2c1 was read as 2A firefly 9% and StopGo RLuc -5%.
`O=C(O)CNC(=O)Cn1ccc2cc(OCc3ccccc3)ccc21` gave 2A firefly 0% and StopGo RLuc 51%[activator].
Screening Cc1ccc(CNC(=O)C2CCN(c3nc4c(C)cc(C)cc4s3)CC2)cc1 returned 2A firefly 2% and StopGo RLuc 4%.

No new results follow: entries from further up.
COc1cc(OC)cc(-c2nc3nc(C)c(CCC(=O)Nc4cc(C)cc(C)c4)c(C)n3n2)c1 was read as 2A firefly -5% and StopGo RLuc -4%.
CC(OC(=O)c1ccc(OCC(N)=O)cc1)C(=O)c1ccc2c(c1)CCC2 (centres undefined) was read as 2A firefly 11% and StopGo RLuc -1%.
Screening Cc1ccc(NC(=O)CCNS(=O)(=O)c2cccc3nonc23)cc1Cl returned 2A firefly -16% and StopGo RLuc -7%.
CS(=O)(=O)c1ccc2nc(NC(=O)CSCc3ccccc3)sc2c1 was read as 2A firefly 9% and StopGo RLuc -5%.
`O=C(O)CNC(=O)Cn1ccc2cc(OCc3ccccc3)ccc21` gave 2A firefly 0% and StopGo RLuc 51%[activator].
Screening Cc1ccc(CNC(=O)C2CCN(c3nc4c(C)cc(C)cc4s3)CC2)cc1 returned 2A firefly 2% and StopGo RLuc 4%.

Some of the compounds tested; the hit share may differ from the screen's.
